Screening results: PubChem BioAssay, National Center for Advancing Translational Sciences (NCATS)
EPAC1 agonist = validation of human EPAC1 agonists | 1% of 16,000 active | EPAC1 Rap1b BODIPY-GDP exchange, fluorescence | Potency, µM, for the others: max response, positive = active, hits mostly activators | O95398; active = well fitted activation curve with a large enough effect; inconclusive = small, poorly fitted or top-dose-only effect; inactive = no such curve, though single readings can be large or run the other way;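 also: nearly all actives have a fitted effect of over 70% in size; series mostly up to about 76 or 150 µM; scaled to a cAMP control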
Target sequence (O95398 whole entry, looked up): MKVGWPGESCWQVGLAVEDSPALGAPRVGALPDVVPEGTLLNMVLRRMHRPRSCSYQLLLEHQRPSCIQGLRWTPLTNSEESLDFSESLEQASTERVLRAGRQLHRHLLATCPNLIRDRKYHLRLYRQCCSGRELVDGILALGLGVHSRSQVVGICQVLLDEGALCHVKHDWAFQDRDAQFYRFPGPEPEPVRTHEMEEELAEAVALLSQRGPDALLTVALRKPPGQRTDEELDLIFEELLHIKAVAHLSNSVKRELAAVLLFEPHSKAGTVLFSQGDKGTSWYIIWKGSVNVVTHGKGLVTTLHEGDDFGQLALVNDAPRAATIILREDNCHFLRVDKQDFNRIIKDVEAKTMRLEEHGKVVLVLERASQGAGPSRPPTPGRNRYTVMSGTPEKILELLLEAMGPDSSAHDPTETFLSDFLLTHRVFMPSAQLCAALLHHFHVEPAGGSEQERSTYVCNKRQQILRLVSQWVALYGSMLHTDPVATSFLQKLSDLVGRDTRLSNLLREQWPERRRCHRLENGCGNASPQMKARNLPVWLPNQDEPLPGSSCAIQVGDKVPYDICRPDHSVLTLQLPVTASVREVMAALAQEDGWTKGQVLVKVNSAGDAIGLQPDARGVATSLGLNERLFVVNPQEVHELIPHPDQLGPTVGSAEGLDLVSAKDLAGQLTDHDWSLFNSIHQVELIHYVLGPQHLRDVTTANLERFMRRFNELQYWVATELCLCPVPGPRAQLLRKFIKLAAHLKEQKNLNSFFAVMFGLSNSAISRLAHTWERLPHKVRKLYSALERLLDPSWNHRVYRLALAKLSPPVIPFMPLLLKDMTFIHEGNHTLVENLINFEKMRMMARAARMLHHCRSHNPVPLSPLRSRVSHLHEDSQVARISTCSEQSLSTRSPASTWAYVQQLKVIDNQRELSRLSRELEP
* hit, by the source's call; ? = inconclusive; & = joins results of further samples; [ ] = dose if it differs, or a comment. % is scaled to controls: 0 for no effect and ±100 for the full control effect; potency is read from the fitted curve at half-maximal effect. Some of the compounds tested (hit frequency here may not be typical).

SMILES	EPAC1 agonist
CCCCCc1cc(O)c2c(c1)OC(C)(C)[C@@H]1CCC(C)=C[C@@H]21	-67%[inhibitor]
CCC(C(N)=O)N1CCCC1=O (stereo not drawn)	-10%
CCN(CC)CCN1C(=O)CN=C(c2ccccc2F)c2cc(Cl)ccc21	-15%
O=C1NCN(c2ccccc2)C12CCN(CCCOc1ccc(F)cc1)CC2	-3%&-10%&-9%
COc1cc2c(cc1O)C[C@H]1c3c(cc(OC)c(O)c3-2)CCN1C	8%
C[C@H]1C(=O)O[C@H]2CCN3CC=C(COC(=O)[C@](C)(O)[C@@]1(C)O)C23 (stereo partly drawn)	1%
O=C1CC[C@@]2(O)C3Cc4ccc(O)c5c4C2(CCN3CC2CC2)[C@H]1O5 (stereo partly drawn)	0%
CCOc1cc(C=O)ccc1O	-9%
C=CCN1CCc2cccc3c2C1Cc1ccc(O)c(O)c1-3 (stereo not drawn)	-11%
C[C@@H]1C[C@@H](O)[C@@]2(O)[C@]13CC(=O)OC[C@]2(C)[C@@](C)(O)C(=O)C3	6%

A stretch from further up:
SMILES	EPAC1 agonist
O=C1CC[C@@]2(O)C3Cc4ccc(O)c5c4C2(CCN3CC2CC2)[C@H]1O5 (stereo partly drawn)	0%
CCOc1cc(C=O)ccc1O	-9%
C=CCN1CCc2cccc3c2C1Cc1ccc(O)c(O)c1-3 (stereo not drawn)	-11%
C[C@@H]1C[C@@H](O)[C@@]2(O)[C@]13CC(=O)OC[C@]2(C)[C@@](C)(O)C(=O)C3	6%

Additional structures:
SMILES	EPAC1 agonist
CNC(=O)NC(O)C(Cl)(Cl)Cl (stereo not drawn)	-3%
CC(Cc1ccccc1)NCCn1cnc2c1c(=O)n(C)c(=O)n2C (stereo not drawn)	11%
COc1ccc2c(c1O)-c1cc(O)cc3c1[C@@H](C2)N(C)CC3	-13%
CCC(=O)O[C@H]1[C@@H](N2CCCCC2)C[C@H]2[C@@H]3CC[C@H]4C[C@H](OC(C)=O)[C@@H](N5CCCCC5)C[C@]4(C)[C@H]3CC[C@@]21C	8%
Cc1nnc2n1-c1sc(Br)cc1C(c1ccccc1Cl)=NC2	9%
CCCN1CCC[C@@H]2Cc3[nH]ncc3C[C@H]21	-11%&-5%&-10%&-8%
CC1CC[C@@]2(OC1)OC1C(O)C3C4CC[C@H]5CC(O[C@@H]6O[C@@H](CO)[C@H](OC7OC(CO)C(O)C(OC8OCC(O)C(O)[C@H]8O)[C@@H]7O[C@@H]7OC(CO)[C@H](O)[C@@H](O[C@@H]8OC(CO)C(O)C(O)C8O)C7O)C(O)C6O)C(O)C[C@]5(C)C4CC[C@]3(C)C1C2C (stereo partly drawn)	11%
CCN1C[C@@]2(COC(=O)c3ccccc3N3C(=O)CC(C)C3=O)CC[C@H](OC)[C@]34C5C[C@@H]6[C@@H](OC)C[C@@](O)(C5[C@H]6OC)[C@@](O)(C13)[C@@H](OC)C24 (stereo partly drawn)	-36%
C[C@H](N)CN1CCc2ccc(Br)cc21	-13%
CC[C@H]1C2CC3[C@@H]4N(C)c5ccccc5[C@]45C[C@@H](C2[C@H]5O)N3[C@@H]1O (stereo partly drawn)	-12%
NCCc1ccc(S(=O)(=O)F)cc1	1%
O=C(c1cnccn1)N1CCC2(CC1)CN(Cc1ccncc1)C2	-57%[inhibitor]
CC(C)C[C@H]1C(=O)N2CCC[C@H]2[C@]2(O)O[C@](NC(=O)[C@@H]3C[C@@H]4c5cccc6[nH]cc(c56)C[C@H]4N(C)C3)(C(C)C)C(=O)N12	20%
CC(C)(C)NCC(O)c1ccccc1Cl (stereo not drawn)	-3%&12%
O=C(O)/C=C/CO	-16%&2%
C=C(C)C1CNC(C(=O)O)C1CC(=O)O (stereo not drawn)	13%
C1CC[C@H]([C@@]23C[C@H](C[C@H]4CCCN[C@H]42)[C@@H]2CCCCN2C3)NC1	-8%
COC(C/C=C/C=C/CC/C=C\CC(C)/C=C\C(=C/C(=O)O)CC(=O)O)/C(C)=C\C=C(/C)C(=O)O (stereo not drawn)	-8%
CO[C@H]1[C@@H](O)C[C@H](O[C@H]2[C@@H](O)C[C@H](O[C@H]3[C@@H](O)C[C@H](O[C@H]4CC[C@@]5(C)[C@H](CC[C@@H]6[C@@H]5C[C@@H](O)[C@]5(C)[C@@H](C7=CC(=O)OC7)CC[C@]65O)C4)O[C@@H]3C)O[C@@H]2C)O[C@@H]1C	-30%[inhibitor]
C=C1C(=O)O[C@@H]2C[C@@H](C)[C@@H]3C=CC(=O)[C@@]3(C)[C@@H](O)[C@H]12	-17%
COc1ccc(CN2CCNCC2)c(OC)c1OC	-29%
COc1ccc(OC)c(CC(C)N)c1 (stereo not drawn)	-16%
CN(C)[C@@H]1C(=O)C(C(N)=O)=C(O)[C@@]2(O)C(=O)C3=C(O)c4c(O)cccc4[C@@](C)(O)[C@H]3C[C@@H]12	-9%
CCS(=O)(=O)C(C)(C)S(=O)(=O)CC	-22%
O=C(Nc1cccc(F)c1)N1CC[C@@]2(CCCN(C(=O)Oc3ccccc3)C2)C1	-73%[inhibitor]
CC(=O)OC1CC(OC(C)=O)[C@]2(C)C(CC(OC(C)=O)[C@]3(C)C2CC[C@@]2(C)C(c4ccoc4)C[C@H]4O[C@]432)C1(C)C (stereo partly drawn)	-24%
CC(C(=O)OC1CC2CCC(C1)N2C)c1ccc(Br)cc1 (stereo not drawn)	-8%
C[C@]12CCC3C(CC[C@]4(O)CC(O)CC[C@@]34C=O)[C@]1(O)CCC2C1=CC(=O)OC1 (stereo partly drawn)	8%
c1ccc(N2CC[C@@]3(CCCNC3)C2)nc1	-58%[inhibitor]
C=C1C/C(=C/C)C(=O)O[C@@H]2CCN3CC=C(COC(=O)[C@]1(C)O)[C@@H]23	3%
CN1CCN(C(=O)OC2c3nccnc3C(=O)N2c2ccc(Cl)cn2)CC1 (stereo not drawn)	-8%&-39%
CN1CC[C@@]2(CCCN(C(=O)c3ccco3)C2)C1	-61%[inhibitor]
CC1(C)S[C@H]2[C@@H](N)C(=O)N2[C@H]1C(=O)O	9%
c1ccc2nc(N3CCNCC3)ccc2c1	2%&-18%&-8%
OCC1OC(n2cnc3cc(Cl)c(Cl)cc32)C(O)C1O (stereo not drawn)	20%
c1cc2c(c(N3CCNCC3)c1)OCCO2	-5%
C[C@@H]1O[C@@H](O[C@H]2C[C@@H](O)[C@]3(CO)[C@H]4[C@H](O)C[C@]5(C)[C@@H](C6=CC(=O)OC6)CC[C@]5(O)[C@@H]4CC[C@]3(O)C2)[C@H](O)[C@H](O)[C@H]1O	?
COc1ccc2c3c1O[C@H]1[C@H](O)CC[C@H]4[C@@H](C2)N(C)CC[C@@]341	17%
C[C@@H]1O[C@@H](O[C@H]2C[C@@H](O)[C@]3(CO)[C@@H]4C(CC[C@]3(O)C2)[C@@]2(O)CC[C@H]([C@@H]3COC(=O)C3)[C@@]2(C)C[C@H]4O)[C@H](O)[C@H](O)[C@H]1O (stereo partly drawn)	-5%
CC(C)C(Br)C(=O)NC(N)=O (stereo not drawn)	-12%
CC(C)C[C@H]1C(=O)N2CCCC2[C@]2(O)O[C@](NC(=O)[C@@H]3C=C4c5cccc6[nH]cc(c56)CC4N(C)C3)(C(C)C)C(=O)N12 (stereo partly drawn)	-10%&17%
C[C@]12CCC(=O)C[C@@H]1CC[C@@H]1[C@@H]2CC[C@@]2(C)[C@H]1CC[C@]2(C)O	7%
CCN1C[C@]2(COC(=O)c3ccccc3N3C(=O)CC(C)C3=O)CC[C@H](OC)[C@@]34C5C[C@@H]6[C@@H](OC)C[C@@](O)(C5[C@H]6OC)[C@](O)([C@@H](OC)C23)[C@@H]14 (stereo partly drawn)	-8%
COc1cc(C2c3cc4c(c(O)c3CC3COC(=O)C32)OCO4)cc(OC)c1OC (stereo not drawn)	-51%[inhibitor]
CCCN1CCc2cc(O)cc3c2[C@H]1Cc1ccc(O)c(O)c1-3	1%
O=C(Oc1ccccc1)N1CCC[C@@]2(CCN(Cc3nccs3)C2)C1	-63%[inhibitor]
CC(C)NCC(O)c1ccc([N+](=O)[O-])cc1 (stereo not drawn)	-9%
CN1CCCCC1c1cccnc1 (stereo not drawn)	-12%
CCC12C=CCN3CCC4(c5ccc(OC)cc5N(C)C4[C@@](O)(C(=O)OC)C1OC(C)=O)C32 (stereo partly drawn)	-37%[inhibitor]
O=C(O)COc1ccccc1	-10%
Continued.
SMILES	EPAC1 agonist
C[C@H]1O[C@H](O[C@H]2[C@H](O)[C@@H](O)[C@@H](O)[C@H](O)[C@@H]2O)[C@@H](N)C[C@@H]1NC(=N)C(=O)O	-35%[inhibitor]
COP(=O)(OC)OC=C(Cl)Cl	-29%
c1csc(CN2CCC3(CCNCC3)CC2)n1	?
CC[C@@H](CO)NC(=O)[C@H]1C=C2c3cccc4[nH]cc(c34)C[C@H]2N(C)C1	-15%
NC[C@@H](CC(=O)O)c1ccc(Cl)cc1	-13%
O=C1CSC(c2ccccc2Cl)c2cc(Cl)ccc2N1 (stereo not drawn)	?
C[C@]12CC[C@@H]3c4ccc(OC(=O)N(CCCl)CCCl)cc4CC[C@H]3[C@@H]1CC[C@@H]2OP(=O)(O)O	?
O=C1OC(c2ccc(O)c(S(=O)(=O)O)c2)(c2ccc(O)c(S(=O)(=O)O)c2)c2c(Br)c(Br)c(Br)c(Br)c21	?
CC1=C2CC3C(CC=C4C[C@@H](O)CC[C@@]43C)[C@@H]2CC[C@]12O[C@@H]1C[C@H](C)CN[C@H]1[C@H]2C (stereo partly drawn)	3%
CC1CC(Cl)CCC1C(=O)OC(C)(C)C (stereo not drawn)	-11%
Oc1c(Br)cc(Br)cc1Br	-38%[inhibitor]
CCN[C@@H](C)Cc1cccc(C(F)(F)F)c1	-45%[inhibitor]
C[C@]12CC[C@@H]3c4ccc(OC(=O)N(CCCl)CCCl)cc4CC[C@H]3[C@@H]1CC[C@@H]2O	?
CN(C)[C@@H]1C(=O)C(C(N)=O)=C(O)[C@@]2(O)C(=O)C3=C(O)c4c(O)cccc4[C@@](C)(O)[C@H]3[C@H](O)[C@@H]12	?
CC1(C)C(O)CC(O)[C@]2(C)C1CC(O)[C@]1(C)C2CC[C@@]2(C)C(c3ccoc3)OC(=O)C3O[C@]312 (stereo partly drawn)	13%
C#C[C@]1(OC(=O)CCCCCC)CC[C@H]2[C@@H]3CCC4=CC(=O)CC[C@@H]4[C@H]3CC[C@@]21C	?
COc1ccc(OC)c(C(O)C(C)N)c1 (stereo not drawn)	-5%
O=C(O)Cc1ccccc1	-21%
Nc1ccc(Cl)cc1N	?
c1ccc([C@H]2CNCc3ccccc32)cc1	-21%
CC(C)NP(=O)(NC(C)C)OP(=O)(NC(C)C)NC(C)C	1%
O=c1cccc2n1CC1CC2CN2CCCCC12 (stereo not drawn)	8%
COc1ccc2[nH]c3c(c2c1)CCNC3C (stereo not drawn)	-7%
O=C1C=CC(=O)c2c(O)cccc21	-74%[inhibitor]
O=C1C=CC[C@@H]2[C@H]3CCCN4CCC[C@@H](CN12)[C@@H]34	-12%
COc1ccc2c(c1OC)C(=O)OC2C1c2cc3c(cc2CCN1C)OCO3 (stereo not drawn)	?
S=C(S)N1CCNCC1	-13%
CCC(=O)O[C@@](Cc1ccccc1)(c1ccccc1)[C@@H](C)CN(C)C	-9%
COc1ccc(OC)c(C[C@H](C)N)c1	17%
CC(C)c1c(CN(C)C(C)Cc2ccccc2)n(C)n(-c2ccccc2)c1=O (stereo not drawn)	-7%
Cc1ccc2c(c1)C1CN(C)CCC1N2 (stereo not drawn)	-33%[inhibitor]
CC(C)(O)C1C2OC(=O)C1[C@]1(O)CC3O[C@@]34C(=O)OC2[C@@]14C (stereo partly drawn)	?
CCCN1CCO[C@@H]2c3cc(O)ccc3OC[C@H]21	-2%&-7%&-14%&-1%
CCCC(C)(COC(N)=O)COC(N)=O	-18%
CN1C[C@@H](C(=O)N[C@@]2(C)O[C@]3(O)C4CCCN4C(=O)[C@@H](Cc4ccccc4)N3C2=O)C=C2c3cccc4[nH]cc(c34)C[C@@H]21 (stereo partly drawn)	24%
CCCOC(=O)c1cc2c(cn1)[nH]c1ccccc12	-1%
CCCC(C)(COC(N)=O)COC(=O)NC(C)C (stereo not drawn)	-6%&-5%&-30%
CC1C(=O)OC2CCN3CC=C(COC(=O)[C@](C)(O)[C@]1(C)O)C23 (stereo partly drawn)	14%
C=C[C@H]1CN2CC[C@H]1C[C@@H]2[C@@H](O)c1ccnc2ccccc12	8%
CC(C)(c1ccc(OCC2CO2)cc1)c1ccc(OCC2CO2)cc1 (stereo not drawn)	16%&13%

An excerpt of these results, with bars between the fields.
SMILES | EPAC1 agonist
CCCN1CCO[C@@H]2c3cc(O)ccc3OC[C@H]21 | -2%&-7%&-14%&-1%
CCCC(C)(COC(N)=O)COC(N)=O | -18%
CN1C[C@@H](C(=O)N[C@@]2(C)O[C@]3(O)C4CCCN4C(=O)[C@@H](Cc4ccccc4)N3C2=O)C=C2c3cccc4[nH]cc(c34)C[C@@H]21 (stereo partly drawn) | 24%

In the list so far, 2 contain a tert-butyl group:
SMILES	EPAC1 agonist
CC(C)(C)NCC(O)c1ccccc1Cl (stereo not drawn)	-3%&12%
CC1CC(Cl)CCC1C(=O)OC(C)(C)C (stereo not drawn)	-11%

(list continues)
SMILES	EPAC1 agonist
Oc1ccc2c3c1O[C@H]1c4c(c5ccccc5n4Cc4ccccc4)C[C@@]4(O)C(C2)N(CC2CC2)CC[C@]314	0%
CC(C)NC(C)C	-5%
COc1cc(CCN)ccc1O	-10%
O=C(CCCN1CCC2(CC1)C(=O)NCN2c1ccccc1)c1ccc(F)cc1	-4%&-15%&-6%&0%
c1ccc(N2CCC3(CCNCC3)CC2)cc1	-27%
O=C1CS[C@@H](c2ccccc2Cl)c2cc(Cl)ccc2N1	6%
CC(=O)O[C@H]1C[C@H](O[C@H]2[C@@H](O)C[C@H](O[C@H]3[C@@H](O)C[C@H](OC4CC[C@@]5(C)C(CC[C@@H]6[C@@H]5CC[C@]5(C)[C@@H](C7=CC(=O)OC7)[C@@H](O)C[C@]65O)C4)O[C@@H]3C)O[C@@H]2C)O[C@H](C)[C@H]1O[C@@H]1O[C@H](CO)[C@@H](O)[C@H](O)[C@H]1O (stereo partly drawn)	-2%
